MgrA DNA FP = modulators of Staphylococcus aureus MgrA DNA binding; fluorescence polarization; inhibition, %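 (about 10 µg/mL by stock and volumes)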; 84,000 tested, 0.13% active; AID 602314;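 active means above 50% in either of two replicates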;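 further: 0% = protein plus DNA without compound and 100% = DNA alone without protein; higher means less MgrA bound to DNA so lower polarization; one replicate is shown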
Sa helicase inh = blocks Staphylococcus aureus DNA helicase. purified S. aureus helicase, fluorescence unwinding assay; about half of the hits fall short of the stated cut. inhibition, %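 (tested at about 80 µM)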. 120,000 tested, 0.05% active. AID 485395;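 active means both duplicates at 50% or more, or one of them with a favoured structure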;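 further: 0% = mean of negative control wells and 100% = mean of positive control wells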
Active calls of the source: *; nt = no result given.

Sa helicase inh,MgrA DNA FP,Structure
-12,0.8,Cc1ccc(Cn2nnc3c(=O)[nH]c(C4CCN(S(=O)(=O)c5ccc(S(=O)(=O)NC6CC6)cc5)CC4)nc32)cc1
3,3.6,CCn1nc(C)c(Oc2ccccc2O)c1C
-1,-1.4,Cc1n[nH]c(=S)n1CC(=O)n1c2c(c3ccccc31)CCCC2
-13,2.3,Cc1ccc2[nH]c(=O)c(CN(CC3CCCO3)C(=S)NCCCN3CCOCC3)cc2c1 (stereo unspecified)
-3,nt,COC(=O)CSCc1csc(-c2ccc(OC)c(OC)c2)n1
17,nt,Cc1ccc(C)c(NC(=O)CN(C)C(=O)C2=NNC(=O)CC2)c1
-17,1.3,CCCc1nc2c(o1)NC(N)=C(C#N)C2c1cnn(-c2ccccc2)c1C (stereo unspecified)
nt,-1.4,COc1cc(C2C(C(=O)OCCOc3ccccc3)=C(C)NC3=C2C(=O)CC(C)(C)C3)cc(OC)c1OC (stereo unspecified)
5,0.8,O=C(O)c1ccccc1C(=O)Nc1cccc2ncccc12
2,4.8,N=c1c(S(=O)(=O)c2ccccc2)cc2c(=O)n3ccccc3nc2n1Cc1ccco1
17,nt,Cc1c(-c2ccn[nH]2)cnn1-c1c(Cl)cc(Cl)cc1Cl
16,nt,CC(=O)NC12CC3CC(C1)CC(C(=O)OCC(=O)c1ccc4c(c1)OCCO4)(C3)C2
15,nt,CC1=C(C(=O)Nc2ccccc2)C(c2ccccc2)n2c(s/c(=C/c3ccc(C)o3)c2=O)=N1 (stereo unspecified)
15,2.8,Cc1occc1C(=O)Nc1cccc(/C=C/C(=O)O)c1
-1,2.4,Cc1c(CC(N)=O)c(=O)oc2cc(O)c(Cl)cc12
nt,-2.0,Cc1cc(Cl)cc(Br)c1OCC(O)CNCc1ccccc1 (stereo unspecified)
nt,0.0,CCOC(=O)c1c(NC(=O)COc2ccccc2)sc(C(=O)Nc2cc(C(F)(F)F)ccc2Cl)c1C
7,0.2,CCC(C)NC(=O)c1ccc2nc(-c3cccs3)c(-c3cccs3)nc2c1 (stereo unspecified)
1,5.7,CN(C)c1ccc(C=NCC2CCCN3CCCCC23)cc1 (stereo unspecified)
22,1.2,Cc1cc(Cl)cc2sc(NC(=O)CCCCl)nc12
15,nt,O=C(CSc1nc2c(c(=O)n1-c1ccccc1)SCC2)c1ccccc1
40,nt,CCn1cnc2cc(NCc3cccc(OC)c3)ccc21
-2,nt,COc1cc2c(cc1NC(=O)C(C)OC(=O)c1n[nH]c(=O)c3ccccc13)oc1ccccc12 (stereo unspecified)
5,nt,S=c1nc[nH]c2c1nnn2Cc1ccc(Cl)cc1
-1,-2.1,CN1CCN(CC(=O)Nc2ccc(C(=O)NCC3CCCO3)cc2)CC1 (stereo unspecified)
nt,-1.9,COc1cc(NC(=O)c2cnn3c2NC(c2cc(OC)c(OC)c(OC)c2)CC3C(F)(F)F)cc([N+](=O)[O-])c1 (stereo unspecified)
-6,nt,CC(C)C(=O)OCC(=O)Nc1ccccc1C(=O)Nc1ccc2c(c1)OCO2
1,nt,CCN(CC)CCNc1ccc2nnc(-c3ccc(F)cc3)n2n1
10,-1.2,CCOC(=O)c1c(C)nc2c(c1-c1ccccc1)C(=O)CC(C)(C)C2
7,nt,N#C/C(=C(/O)c1ccco1)c1ccccn1

Reformatted with values under each structure: entries from further up.
Results follow in this order: Sa helicase inh, MgrA DNA FP
- CC(C)C(=O)OCC(=O)Nc1ccccc1C(=O)Nc1ccc2c(c1)OCO2
    -6, nt
- CCN(CC)CCNc1ccc2nnc(-c3ccc(F)cc3)n2n1
    1, nt

New compounds follow.
Sa helicase inh,MgrA DNA FP,Structure
-11,nt,COc1ccc2cc3cc(C(=O)N4CCN(Cc5ccccc5)CC4)oc3nc2c1
nt,-3.0,O=C(NNC(=O)c1cccc(C(F)(F)F)c1)c1ccncc1
5,-0.2,Cc1cc(F)ccc1NC(=O)c1cc2sccc2n1Cc1ccc(Cl)cc1
-9,nt,CCCCCC1CC(=O)N(Cc2ccccc2)C(=O)N1 (stereo unspecified)
13,nt,[O-]/[N+](=C\c1cccc(Br)c1)c1ccccc1
nt,1.7,CCOC(=O)COc1ccccc1C1Nc2ccccc2-c2nnc(SC)nc2O1 (stereo unspecified)
nt,-1.9,NC(=S)Cc1ccc(Cl)cc1
-7,nt,C=CCn1c(CNC(=O)Cc2ccccc2)nc2ccccc21
-35,nt,Cn1/c(=N/N)sc2ccccc21
0,0.2,N#CC1(C#N)[C@H](c2ccoc2)[C@@H](C(=O)Oc2ccccc2)N2c3ccccc3C=C[C@@H]21
-12,nt,CSc1nc2ccc(NC(=O)c3cccc(Cl)c3)cc2s1
16,nt,CCNc1ncnc2c1nnn2CC
9,nt,COc1ccc(-n2nnc3c(sc4nc(C)cc(C)c43)c2=O)cc1
nt,0.0,O=C(NC(CO)c1ccccc1)c1ccc(Cl)cc1 (stereo unspecified)
nt,-4.8,Cc1[nH]n(C)c(=O)c1N=Nc1ccc(Cl)cc1
-10,3.4,O=C(O)c1ccc(NS(=O)(=O)c2cc3c4c(cccc4c2)C(=O)NC3=O)cc1
4,nt,CCOC(=O)c1cnc2ccc(Cl)cc2c1NCCN(C)C
nt,-2.0,C=CCn1c(SCC(=O)NCc2ccccc2)nnc1-c1ccc2ncccc2c1
-4,nt,COc1ccc(-c2[nH]ncc2CN2CCN(C)CC2)cc1
19,nt,S=C(SCc1cn2cccnc2n1)N1CCCC1
1,-3.2,COc1ccc(NC(=O)Cn2nnc(-c3ccc(S(C)(=O)=O)cc3)n2)cc1
6,nt,O=C(c1ccc(S(=O)(=O)NC2CCCc3ccccc32)s1)N1CCCC1 (stereo unspecified)
13,nt,O=c1cc(CSc2nnc3sc4ccccc4n23)c2ccc(Br)cc2o1
11,-1.4,CCOC(=O)N1CCN(C(=O)CCc2ccc(S(=O)(=O)NC3CCCCC3)cc2)CC1
-5,nt,Cc1cc(COC(=O)c2cc(S(=O)(=O)NC3CC3)ccc2Br)no1
18,1.1,N=C(N)N1CCN(CC(O)COc2ccccc2)CC1 (stereo unspecified)
1,nt,Cc1ccc(N2CC(NC(=O)N3CCC(C(N)=O)CC3)CC2=O)cc1 (stereo unspecified)
4,nt,CCSC1=C(C#N)C(C)(C)C(C#N)C(=O)N1 (stereo unspecified)
18,nt,O=c1[nH]c(NCCO)c(I)c(=O)[nH]1
-23,nt,O=C(Cc1cccc2ccccc12)NCCCN1CCOCC1
-5,nt,COc1ccc(-c2oc(NC(=O)COC(=O)C(C)(C)C)c(C#N)c2-c2ccc(OC)cc2)cc1
-5,nt,Cc1nn(-c2ccccc2)c(N2CCCC2)c1C=Nc1ccc2c(c1)OCO2
nt,-0.5,NC(=O)C1CCN(C(=O)Nc2csc3ccccc23)CC1
-1,-0.7,O=C(Nc1ccc(I)cc1)c1ccccc1C(=O)c1ccccc1
14,-0.7,Cc1nc(CCNC(=O)Cc2ccccc2)cs1
13,-0.9,Cc1cc(-c2ccco2)n(-c2ccccc2)n1
6,0.5,O=C(NCc1ccco1)c1c2c(nc3ccccc13)-c1ccccc1CC2
-48,13,CC1=C(C(=O)Nc2ccccc2)C(c2ccncc2)C(C#N)=C(S)N1 (stereo unspecified)
-2,nt,O=C(Cn1cncn1)N/N=C/c1ccc(O)cc1O
nt,-0.8,CS(=O)(=O)c1sc(Cl)c2c1C(=O)CCC2
9,-2.2,CCC(C)SCC(=O)N1CCc2ccccc21 (stereo unspecified)
-1,nt,C/C(=N\NC(=O)c1nc(Cl)c(Cl)c(N)c1Cl)c1cc(O)ccc1O
23,0.7,COc1nc(N(C)C)nc(N(C#N)S(=O)(=O)c2ccc(C)cc2)n1
17,nt,O=C(CS(=O)(=O)c1c[nH]c2ccccc12)Nc1ccccc1
8,-2.2,CC(C)(C)OC(=O)N1Cc2[nH]cnc2CC1C(=O)O (stereo unspecified)
7,4.0,Nc1c(-c2ccccc2)nc2ccccn12
-1,nt,O=C(Cn1cnc2ccccc2c1=O)N1CCc2ccccc2C1
nt,-1.8,c1ccc2c(c1)Cc1cccnc1-2
nt,1.6,Cc1cccc(C)c1NC(=S)NNC(=O)c1cccnc1
6,-2.2,CCNS(=O)(=O)c1ccc(NC(=O)Nc2cccc(C(F)(F)F)c2)cc1
11,-0.2,Cn1cccc1C=NN1CCN(C2c3ccccc3-c3ccccc32)CC1
-10,nt,CCCn1c(CCNC(=O)c2ccccc2)nc2ccccc21
8,nt,CC(=O)Nc1ccccc1SCc1cc(=O)n2ccsc2n1
19,nt,Cc1nc(CC(=O)Nc2cccc(Cl)c2)cs1
7,1.9,O=C(CSc1nccc(=O)[nH]1)NCc1ccccc1
-9,nt,COC(=O)c1sccc1NC(=O)Nc1cn(C)c(=O)c2ccccc12
3,-2.8,CC(C)CN(CC(C)C)S(=O)(=O)c1ccc(Br)s1
nt,-2.0,COc1ccc(OCCN)cc1
1,nt,NC(=O)COc1ccc(=O)n(-c2ccccc2)n1
5,0.7,CC1=NN(c2ccccc2)C(C2=C(C)CCCC2(C)C)C1 (stereo unspecified)

Next part
Sa helicase inh,MgrA DNA FP,Structure
-5,nt,COC(=O)Cn1c(=NC(=O)C(C)(C)C)sc2cc(S(N)(=O)=O)ccc21
5,nt,Cc1cc(C(F)(F)F)c2c(=O)[nH]c(=O)n(Cc3ccccc3)c2n1
5,nt,CC(C)(C)c1ccc(C(=O)NC(=S)Nn2cnnc2)cc1
15,nt,O=C(O)C(Cc1ccccc1)n1cccc1 (stereo unspecified)
1,nt,S=c1[nH]c2c(s1)C1c3ccccc3OCC1CS2 (stereo unspecified)
-1,nt,Cc1cc2ccccc2n1CCNC(=O)C1CC1
18,-1.1,CC1(C)CC(=O)C2=C(C1)Nc1cc3c(cc1C2c1ccc(Cl)cc1)OCO3 (stereo unspecified)
6,nt,COC(=O)C(C)Oc1cc(C)cc2oc(=O)cc(-c3ccccc3)c12 (stereo unspecified)
14,-3.0,COc1ccccc1NC(=O)c1cccs1
3,nt,Cc1occc1C(=O)NN
15,1.5,Cc1nn(-c2ccccc2)c(Cl)c1/C=C1\C(=O)N(C)c2ccccc21
nt,-2.1,COc1ccc(C(=O)O)cc1OC(C)C
9,3.1,CN(C)C(=O)CSc1nc(-c2ccccc2)cs1
15,nt,CCNC(=O)c1ccc(-c2nc(CS(=O)c3ccc(C)cc3)c(C)o2)cc1 (stereo unspecified)
9,nt,O=S(=O)(c1ccc2c(c1)CCCC2)N1CCNCC1
10,nt,CCCCN(Cc1ccco1)C(=O)Cn1ncc2c(=O)oc3ccc(C)cc3c21
nt,-3.0,CN=C(C)/C(C(=O)OC)=C(/O)c1ccc(Cl)cc1
26,nt,O=C(CSc1nc(O)cc(=O)[nH]1)N1c2ccccc2CCc2ccccc21
nt,0.5,COc1ccc(-c2nnc(-c3cc4ccccc4oc3=O)o2)cc1
2,nt,O=C(Cn1ncn2c(cc3sccc32)c1=O)NC1CCCCCC1
-7,2.5,O=C(O)c1ccccc1C(=O)c1ccc(-c2ccccc2)cc1
nt,-1.6,CCOc1ncnc2sc3c(c12)CCCC3
nt,1.5,CCOC(=O)CC(=O)c1ccc([N+](=O)[O-])cc1
nt,0.4,FC(F)(F)c1ccnc(N2CCN(Cc3cnc(-c4ccccc4)[nH]3)CC2)c1
nt,2.6,N#C/C(N)=C(\C#N)N=Cc1ccc(Cl)cc1
-40,nt,CCOC(=O)N1CCC(N2CC34C=CC(O3)C(C(=O)Nc3ccc(C)cc3)C4C2=O)CC1 (stereo unspecified)
2,-1.5,O=C(Nc1ccc(S(=O)(=O)N2CCCC2)cc1)c1ccc(COc2ccc3c(c2)CCC3)cc1
18,-8.6,Cn1cc(-c2cc(C(=O)O)on2)cn1
-27,nt,CCC(=O)N1CCc2cc(Br)cc(S(=O)(=O)CCC(=O)NCC3COc4ccccc4O3)c21 (stereo unspecified)
8,nt,COc1ccc(-c2cc(C3CC3)[nH]c(=S)c2C#N)cc1
nt,-1.3,COc1ccc(C2C3=C(CC(c4ccccc4)CC3=O)Nc3ccccc3N2C(=O)C(C)C)cc1OC (stereo unspecified)
nt,0.0,COc1ccc(CNC(=O)c2cc3nc(-c4ccc(OC)cc4)cc(C(F)(F)F)n3n2)cc1
nt,2.3,O=c1oc2ccc3ccccc3c2cc1-c1nnc(-c2ccccc2Br)o1
7,nt,CCC(CC)c1nnc(NC(=O)c2c(-c3ccccc3)noc2C)s1
14,-0.9,O=C(COc1ccc2ccc(=O)oc2c1)NC1CC1
nt,-0.1,Cn1nccc1NC(=O)CC1(CC(=O)O)CCCCC1

Grouped by structure: the entries above containing two or more sulfur atoms.
Sa helicase inh,MgrA DNA FP,Structure
-12,0.8,Cc1ccc(Cn2nnc3c(=O)[nH]c(C4CCN(S(=O)(=O)c5ccc(S(=O)(=O)NC6CC6)cc5)CC4)nc32)cc1
-3,nt,COC(=O)CSCc1csc(-c2ccc(OC)c(OC)c2)n1
7,0.2,CCC(C)NC(=O)c1ccc2nc(-c3cccs3)c(-c3cccs3)nc2c1 (stereo unspecified)
15,nt,O=C(CSc1nc2c(c(=O)n1-c1ccccc1)SCC2)c1ccccc1
-12,nt,CSc1nc2ccc(NC(=O)c3cccc(Cl)c3)cc2s1
19,nt,S=C(SCc1cn2cccnc2n1)N1CCCC1
6,nt,O=C(c1ccc(S(=O)(=O)NC2CCCc3ccccc32)s1)N1CCCC1 (stereo unspecified)
13,nt,O=c1cc(CSc2nnc3sc4ccccc4n23)c2ccc(Br)cc2o1
nt,-0.8,CS(=O)(=O)c1sc(Cl)c2c1C(=O)CCC2
8,nt,CC(=O)Nc1ccccc1SCc1cc(=O)n2ccsc2n1
3,-2.8,CC(C)CN(CC(C)C)S(=O)(=O)c1ccc(Br)s1
-5,nt,COC(=O)Cn1c(=NC(=O)C(C)(C)C)sc2cc(S(N)(=O)=O)ccc21
1,nt,S=c1[nH]c2c(s1)C1c3ccccc3OCC1CS2 (stereo unspecified)
9,3.1,CN(C)C(=O)CSc1nc(-c2ccccc2)cs1

Source: PubChem

An excerpt; rates above refer to the full screens.
